eIF4H FP inh = inhibitors of RNA binding by human eIF4H. inhibition, % at 35 µM. 0.94% of 290,000 active. Q15056. eIF4H fluorescence polarization binding assay;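 active means 50% or more with normal probe brightness, or confirmed in later tests; inconclusive means above 50% with abnormal brightness, or retests that disagree; inactive means below 50% or failed in later tests; about a fifth of its hits are not listed in these tables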;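 further: calls also rest on retests at 20 µM and on dose response follow-up; 0% = protein and probe with vehicle and 100% = probe without protein; strong numbers were not always called active; many hits fall short of the cut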
Rce1 inhib = inhibitors of yeast Ras-converting enzyme | Q03530 | yeast membranes, quenched prenylated peptide cleavage fluorescence | calls only | 0.27% of 290,000 active;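 active means fall in fluorescence gain of 50% or more versus controls, with final raw signal at or below 3038400; inconclusive means same 50% fall but final raw signal above 3038400; inactive means fall in fluorescence gain under 50%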;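 further: plate controls were neutral control wells for no effect and wells lacking membranes for full effect; tested at 10 µM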
Target sequence (Q03530 whole entry, looked up): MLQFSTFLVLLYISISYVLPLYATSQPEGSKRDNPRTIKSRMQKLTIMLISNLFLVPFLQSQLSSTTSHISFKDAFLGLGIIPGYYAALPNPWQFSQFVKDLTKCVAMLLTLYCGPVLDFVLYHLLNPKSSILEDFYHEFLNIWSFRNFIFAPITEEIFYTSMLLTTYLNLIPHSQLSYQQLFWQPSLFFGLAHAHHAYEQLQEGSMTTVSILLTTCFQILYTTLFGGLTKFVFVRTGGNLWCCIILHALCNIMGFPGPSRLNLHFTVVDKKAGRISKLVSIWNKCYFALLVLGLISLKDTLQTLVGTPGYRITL
MT1-MMP act inh = blocks activation of human MT1-MMP; HT1080 RFP-PRO-GFP cells, GFP/RFP ratio fluorescence, overnight; percent of plate control window, DMSO zero; AID 651647; 0.061% of 360,000 active; GFP/RFP ratio change, % at 20 µM;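 active means GFP/RFP ratio change of at least 30% with cell ATP level not reduced by more than half and red fluorescence within 50% of control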; further: strong numbers were not always called active
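Assay system – RFP-PRO-GFP reporter HT1080 cells · Compound dosing – single dose of 20 µM compound, 1% DMSO final · Incubation – overnight compound exposure at 37 °C · Measure – GFP/RFP fluorescence ratio · Benchmarks – DMSO wells and RFP-L50D-GFP cells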
UUG fidelity = yeast start codon fidelity modulation; S. cerevisiae UUG-firefly luciferase reporter, luminescence/redox ratio; activity score, % at 18.7 µM; 0.13% of 350,000 active; AID 602363;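 active means replicate mean at a twofold rise or more, about +100% in these data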;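 further: firefly luciferase made from a UUG start codon reports start codon fidelity; reporter light over untreated wells divided by growth signal over untreated wells; some hits fall short of that in this replicate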
CSC inhib = cancer stem cell inhibition | 1.1% of 300,000 active | cancer stem cell-like cells viability, luminescence | AID 2717 | inhibition, % at 7.5 µM;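 active means mean at 75% or more and at least half the replicates too; inconclusive means mean and replicates disagree; tested in HMLE shEcad cells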;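 further: 0% = median of negative and 100% = median of positive control wells; the first replicate is given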
Env fusion inh = blocks HIV Env-driven cell-cell fusion. HeLa-JRFL Env/CEM21 cell fusion, luciferase. inhibition, % at 12.3 µM. 1.1% of 360,000 active;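 active means mean replicate inhibition score of at least 50 and every replicate individually at or above 50; inconclusive means only one of the two criteria met; inactive means mean below 50 and not all replicates reaching 50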;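 further: 0% = plate neutral controls and 100% = maraviroc near 300 nM; one replicate is shown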
PABP polyA inh = blocks human PABP binding to poly(A) RNA; fluorescence polarization; inhibition, % at 35 µM; AID 2014; 1% of 290,000 active;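 active means 50% or more with normal probe brightness, or confirmed in later tests; inconclusive means above 50% with abnormal brightness, or retests that disagree; inactive means below 50% or failed in later tests; about a fifth of its hits are not listed in these tables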;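 further: calls also rest on retests at 20 µM and on dose response follow-up; controls were probe without protein and protein plus probe with vehicle; some compounds called inactive have numbers as strong as hits; many hits fall short of the cut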
Target sequence (P11940 whole entry, looked up): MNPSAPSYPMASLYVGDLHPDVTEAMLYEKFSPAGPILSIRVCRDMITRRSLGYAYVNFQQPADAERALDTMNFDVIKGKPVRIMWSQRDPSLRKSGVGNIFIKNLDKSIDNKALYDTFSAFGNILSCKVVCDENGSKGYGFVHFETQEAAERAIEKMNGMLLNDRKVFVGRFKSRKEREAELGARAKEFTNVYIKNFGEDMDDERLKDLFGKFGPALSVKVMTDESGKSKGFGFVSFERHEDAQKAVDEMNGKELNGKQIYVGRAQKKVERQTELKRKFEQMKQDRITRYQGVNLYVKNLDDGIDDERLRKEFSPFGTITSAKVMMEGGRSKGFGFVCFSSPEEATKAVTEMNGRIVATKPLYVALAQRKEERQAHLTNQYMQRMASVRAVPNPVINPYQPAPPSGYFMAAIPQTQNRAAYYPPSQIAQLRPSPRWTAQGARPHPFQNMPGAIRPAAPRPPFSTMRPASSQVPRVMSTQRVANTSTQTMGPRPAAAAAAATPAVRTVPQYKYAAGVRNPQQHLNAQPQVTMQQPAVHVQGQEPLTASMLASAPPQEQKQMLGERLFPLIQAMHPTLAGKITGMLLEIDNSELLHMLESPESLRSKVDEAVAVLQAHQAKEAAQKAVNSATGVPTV
eIF4H FP inh retest = also measured in eIF4H FP inh; calls as there; inhibition, %; compound at 20 µM; confirmation average;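 mean of two retest wells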
PABP polyA inh retest = second read-out of PABP polyA inh, no call of its own (marks repeat the call); inhibition, %; compound at 20 µM; confirmation repeats;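 mean of two retest wells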
MT1-MMP act inh RFP = recorded beside MT1-MMP act inh, whose call it bears; RFP signal change, %; measured here: RFP expression control read;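 0 = vehicle wells; hits needed this value within 50% of zero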
* hit, by the source's call; i = inactive; ? = inconclusive; nt = no result given; & = joins results of further samples.

SMILES	eIF4H FP inh	Rce1 inhib	MT1-MMP act inh	MT1-MMP act inh RFP	UUG fidelity	CSC inhib	Env fusion inh	PABP polyA inh	others
Cc1ccc2c(c1)C1CN(C)CCC1N2C(=O)c1cn(-c2ccccc2)nc1-c1ccccc1 (stereo not drawn)	0	i	-13	-10	nt	15	0	-10
CN1C(=O)C(=Cc2ccc(N(C)C)c([N+](=O)[O-])c2)C(=O)N(C)C1=O	-4	i	nt	nt	nt	nt	nt	0
CCOC(=O)c1c(NC(NC(=O)CF)C(Cl)(Cl)Cl)sc2c1CCCC2 (stereo not drawn)	2	i	6	-2	3	-9	nt	4
COc1cc(C2SCC(=O)Nc3c2c(C)nn3-c2ccccc2)cc(OC)c1OC (stereo not drawn)	2	i	1	0	-5	-5	-13	7
COC(=O)C1=C(c2ccc(F)cc2OCc2ccccc2)C[C@@H]2CC[C@H]1N2C(=O)NCc1cccc(OC)c1	nt	nt	-5	-10	-26	15	20	nt
Cc1ccc2c(c1)C(c1ccccc1)NCC(=O)N2 (stereo not drawn)	0	i	1	6	-12	-9	nt	-4
Cn1cccc1/C=C1\C(=O)NC(=O)N(Cc2ccco2)C1=O	59	i	-11	3	-11	nt	-54	-10	eIF4H FP inh retest=18;PABP polyA inh retest=-3
COC(=O)C1=C(c2ccc3ccccc3c2)C[C@@H]2CC[C@H]1N2C(=O)NCCCOC(C)C	nt	nt	-3	-5	-24	-6	-8	nt
CC(C)c1ccc(N=Nc2c(O)[nH]c(=O)[nH]c2=O)cc1	-5	i	4	-1	-30	-14	-61	-4
C(#CCN1CCCCC1)COCc1ccccc1	-3	i	3	6	nt	nt	12	-7
O=C(Cc1ccccc1F)N1CCN(CC(=O)N2CCCC2)CC1	nt	nt	3	4	-6	-12	nt	nt
Cn1c(=O)c2c(nc(N/N=C/c3c(O)n(-c4ccccc4)c(=S)[nH]c3=O)n2C)n(C)c1=O	8	i	13	12	-26	7	19	6
CCNC(=O)NC(=O)C(C)OC(=O)c1c(C)nn(Cc2ccccc2)c1Cl (stereo not drawn)	-4	i	-1	-9	-3	-14	27	3
CCn1cc(C(=O)N2CCCCC2)c2ccccc21	1	i	-4	1	nt	15	12	5
CCOCCCNC(=O)C1c2cc(OC)c(OC)cc2C(=O)N2CCCCC12 (stereo not drawn)	-6	i	-1	2	4	1	20	-13
CSc1ccccc1C(=O)C1CCCN(Cc2ccn[nH]2)C1 (stereo not drawn)	-13	i	-1	3	nt	3	-4	-7
COc1ccc(N2C(=O)NC(=O)/C(=C/c3ccc(N4CCOCC4)cc3)C2=O)cc1	34	i	nt	nt	nt	3	-8	-10
CCOC(=O)c1c(N)n(CCCOC(=O)c2ccco2)c2nc3ccccc3nc12	-13	?	4	-1	-16	20	nt	10
C/C(=N\N1CCN(C)CC1)c1c(O)[nH]c(=O)[nH]c1=O	3	i	-2	3	-6	-21	-15	19
Cc1ccc(C(C)C)c(OCC(=O)N2CCN(CC(=O)N3CCOCC3)CC2)c1	nt	nt	1	0	-10	-11	nt	nt

The last two compounds of the section above lead into the next.
SMILES	eIF4H FP inh	Rce1 inhib	MT1-MMP act inh	MT1-MMP act inh RFP	UUG fidelity	CSC inhib	Env fusion inh	PABP polyA inh	others
C/C(=N\N1CCN(C)CC1)c1c(O)[nH]c(=O)[nH]c1=O	3	i	-2	3	-6	-21	-15	19
Cc1ccc(C(C)C)c(OCC(=O)N2CCN(CC(=O)N3CCOCC3)CC2)c1	nt	nt	1	0	-10	-11	nt	nt
CC(C)CN(CC(C)C)c1ccc(C=C2C(=O)NC(=S)NC2=O)cc1[N+](=O)[O-]	2	nt	11	4	-16	21	nt	14
O=C(O)c1[nH]c(=O)[nH]c(=O)c1F	-1	i	2	2	-6	-3	45	12
CCOC(=O)C(O)(c1ccc(NC(=O)c2ccco2)c(OC)c1)C(F)(F)F (stereo not drawn)	0	i	3	1	7	-3	nt	-4
COC(=O)C1=C(c2ccc(C(C)=O)cc2)C[C@@H]2CC[C@H]1N2C(=O)NC1Cc2ccccc2C1	nt	nt	0	1	-8	-15	nt	nt
Cc1nn(CCC#N)c2c1P(=S)(N1CCCC1)OC(c1ccc(F)cc1)=N2 (stereo not drawn)	5	i	5	8	-13	-9	nt	12
COc1ccccc1OCC(=O)Nc1ccc(Cl)cc1C(=O)c1ccccc1	0	i	0	-1	-15	nt	-31	7
CCC1(c2ccc(-c3ccccc3)cc2)C(=O)NC(=O)NC1=O	-3	i	4	4	-2	-5	-4	-7
Cc1nn(-c2ccccc2)c(Cl)c1C1C(C#N)=C(N)Oc2c1c(=O)oc1ccccc21 (stereo not drawn)	-4	i	-1	-5	-4	1	nt	-5
C[C@]12CCC3C(CC[C@H]4C[C@@H](O)CC[C@]34C)[C@H]1CC[C@H]2O (stereo partly drawn)	nt	nt	3	1	15	-10	nt	nt
O=C(N/N=C/c1c(O)n(-c2ccccc2)c(=S)[nH]c1=O)c1ccccc1	-3	i	2	6	182*	-13	4	-7
COc1cc(C(c2c(O)c3ccccc3oc2=O)c2c(C)n(C)n(-c3ccccc3)c2=O)ccc1O (stereo not drawn)	-1	i	0	2	nt	10	-5	-12
Cn1c(O)c(C(=Nc2ccccc2)SCc2ccc(Cl)cc2)c(=O)n(C)c1=O	8	i	-11	-6	-9	10	9	-5
CNC(=O)OCCc1nccn1C	4	i	-1	3	13	-1	-4	-13
CCCCCP(=O)(O)c1ccccc1	-2	i	7	9	-12	-6	-4	17
Cc1ccc(S(=O)(=O)NC(CC(=O)N2CCC3(CC2)OCCO3)c2ccco2)cc1 (stereo not drawn)	-2	i	-1	4	2	-6	nt	-6
CCCc1nnc(NC(=O)CCC(=O)N2CCN(CCOC(c3ccccc3)c3ccccc3)CC2)s1	6	i	-8	-2	nt	-20	-15	9
O=c1c2ccccc2nc(-c2ccc(Cl)cc2Cl)n1-c1nccs1	-3	i	-6	-3	-3	33	7	2
O=C1CC(=O)N(c2ccccc2F)C(=O)N1	30	i	-6	-3	-32	-10	-7	-10
Cc1cc(/C=C2/C(=O)NC(=O)N(Cc3ccco3)C2=O)c(C)n1-c1ccccc1O	1	i	0	3	-5	10	-18	-6
CN1CC[C@@]2(C)c3cc(O)ccc3N(C)C2O1 (stereo partly drawn)	nt	i	8	7	1	-8	nt	nt
COc1cc2c(cc1OC)C13CCN4CC5=CCOC6CC(=O)N2C1C6C5CC43 (stereo not drawn) (tested in a mixture with another compound)	1	nt	-2	-1	-24	6	nt	16
CCCCC(CC)COCCCN=Cc1c(O)[nH]c(=S)[nH]c1=O (stereo not drawn)	11	i	-3	-14	-17	10	11	-4
C[C@]12CCC3C(CCC4=C/C(=N/OCC(=O)NC(CCC(N)=O)C(=O)O)CC[C@@]43C)C1CCC2O (stereo partly drawn)	-2	i	-3	3	2	-4	0	2
CCN1CCN(c2cc(=O)n3ccccc3n2)CC1	-2	nt	-2	0	-21	-11	-4	2
COC(=O)C1=C(c2cc3ccccc3s2)C[C@@H]2CC[C@H]1N2C(=O)N1CCC(C)CC1	nt	i	6	-11	12	31	-8	nt
CC(=O)c1c(O)n(-c2cccc(Cl)c2)c(=O)[nH]c1=O (tested in a mixture with another compound)	112*	i	-19	-4	nt	-8	-12	60*	eIF4H FP inh retest=89*;PABP polyA inh retest=85*
COc1ccc(OC(=O)N(C)C[C@H]2OCc3cnnn3CCCC(=O)N([C@H](C)CO)C[C@@H]2C)cc1	nt	nt	4	9	-12&1&0	nt	6	nt
CCN1C(=O)CC(c2cccnc2)=Nc2ccccc21	0	i	1	1	nt	-4	5	-6
O=C(c1ccc2c(c1)OCO2)C1CCCN(Cc2c(F)cccc2Cl)C1 (stereo not drawn)	-2	i	-2	1	-20	8	-10	4
CCOc1ccccc1NC(=O)N1CCC2(CC1)OCCO2	-10	i	0	3	-12	2	-56	0
CCn1c(P(C)(=O)O)nc2ccccc21	14	i	-1	1	-2	-1	-2	6
S=C(NCCc1ccccc1)N1Cc2ccccc2-n2nncc2C1	nt	nt	-4	-12	3	nt	11	nt
Cn1c(O)c(C(c2ccccn2)c2c(O)n(C)c(=S)n(C)c2=O)c(=O)n(C)c1=S	57*	i	nt	nt	nt	1	nt	31	eIF4H FP inh retest=81*;PABP polyA inh retest=33
Cc1ccc(C2CC3CCC(C2)N3Cc2ccccc2F)cc1 (stereo not drawn)	14	i	-1	-2	-6	nt	-16	-2
O=C1NC(=O)C(=Cc2ccccc2OCCOc2ccc([N+](=O)[O-])cc2)C(=O)N1	7	nt	7	5	nt	nt	nt	10
COC(=O)C1=C(c2ccc(F)cc2OCc2ccccc2)C[C@@H]2CC[C@H]1N2C	nt	nt	-7	-5	-30	-5	20	nt
CCC(C)N1C(=O)NC(=O)C2(Cc3cc(C)ccc3N(C)C2)C1=O (stereo not drawn)	-8	i	1	0	3	nt	22	7
COc1ccc(CN2CCN(Cc3ccccc3F)CC2)cc1	5	i	1	-3	-9	1	-27	14
CC(=NCCC1=CCCCC1)c1c(O)[nH]c(=O)[nH]c1=O	-2	i	2	8	-10	1	nt	0
Cc1ccc(OP2(=O)Nc3cc(C)c(C)cc3S2)cc1 (stereo not drawn)	nt	nt	-3	-1	-24	nt	-40	nt

Two successive compounds already listed, quoted:
SMILES	eIF4H FP inh	Rce1 inhib	MT1-MMP act inh	MT1-MMP act inh RFP	UUG fidelity	CSC inhib	Env fusion inh	PABP polyA inh	others
CC(=NCCC1=CCCCC1)c1c(O)[nH]c(=O)[nH]c1=O	-2	i	2	8	-10	1	nt	0
Cc1ccc(OP2(=O)Nc3cc(C)c(C)cc3S2)cc1 (stereo not drawn)	nt	nt	-3	-1	-24	nt	-40	nt

More compounds:
SMILES	eIF4H FP inh	Rce1 inhib	MT1-MMP act inh	MT1-MMP act inh RFP	UUG fidelity	CSC inhib	Env fusion inh	PABP polyA inh	others
Cc1c(CC(=O)N2C[C@H]3C[C@@H](C2)c2cccc(=O)n2C3)c(=O)oc2cc(O)c(Cl)cc12	4	i	0	4	-25	4	nt	10
Cc1ccc2cccc(OC(=O)N3CCCC3)c2n1	-10	nt	2	4	-13	-20	4	-1
CCCCn1c(=O)c(C(=O)Nc2ccsc2C(=O)OC)c(O)c2ccccc21	6	i	-17	-10	nt	-7	13	5
CN1C(=O)CN=C(c2ccc[nH]2)c2cc(Cl)ccc21 (tested in a mixture with another compound)	nt	nt	6	1	-12	nt	2	nt
O=C(CCNC(=O)N1C[C@H]2C[C@@H](C1)c1cccc(=O)n1C2)Nc1cccc(Cl)c1	1	nt	4	4	-17	0	nt	-5
CC(=O)Nc1ccccc1C(=O)OCC(=O)c1cccc2ccccc12	-6	i	3	0	nt	2	-119	-12
CC(Cc1ccccc1)NC(=O)NC(C)Cc1ccccc1 (stereo not drawn)	-9	i	3	6	-7	8	nt	-6
O=C(Cc1ccccc1)OCC(=O)c1ccccc1	-10	i	-3	4	-16	-6	-20	-16
COc1cccc(/C=C2\N=C(c3cncc(Br)c3)OC2=O)c1	-4	i	-5	-2	-5	1	nt	5
COc1ccc2[nH]cc(CCNCc3cccnc3)c2c1	-9	i	2	0	-4	-12	14	1
CC(C)(C)c1ccc(OC(=O)N2CCCCC2)cc1	4	i	3	1	nt	-15	-41	-2
C#C[C@]1(O)[C@H](O)CC2C3CC[C@H]4C[C@@H](O)CC[C@]4(C)C3CC[C@@]21C (stereo partly drawn)	nt	nt	8	-3	-7	-3	-13	nt
COc1ccc(-n2c(O)c(C=NCCCn3ccnc3)c(=O)[nH]c2=O)cc1	2	i	2	6	-13	6	-37	1
O=[N+]([O-])c1ccc(C(c2ccc([N+](=O)[O-])cc2)c2ccc([N+](=O)[O-])cc2)cc1	nt	nt	15	-12	-3	nt	-41	nt

Some of the compounds tested; the hit share may differ from the screen's.
